MgrA DNA FP: S. aureus MgrA-DNA binding modulation; fluorescence polarization; inhibition, %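 (about 10 µg/mL by stock and volumes)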; 84,000 tested, 0.13% active; AID 602314;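 active = above 50% in either of two replicates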;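 note: 0% = protein plus DNA without compound and 100% = DNA alone without protein; higher means less MgrA bound to DNA so lower polarization; one replicate is shown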
Sa helicase inh: blocks Staphylococcus aureus DNA helicase. 120,000 tested, 0.05% active. purified S. aureus helicase, fluorescence unwinding assay; about half of the hits fall short of the stated cut. inhibition, %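 (tested at about 80 µM)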;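 active = both duplicates at 50% or more, or one of them with a favoured structure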;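 note: 0% = mean of negative control wells and 100% = mean of positive control wells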
The depositor's hits bear a star; x = no result given. These rows are one share of the data; rates above refer to the full screens.

SMILES	MgrA DNA FP	Sa helicase inh
Cc1onc(-c2ccccc2Cl)c1C(=O)Nc1cccc2nsnc12	0.6	x
COc1ccc(Nc2nc(C(=O)NCc3ccccc3)cs2)cc1	-1.1	-1
O=C(Nc1ccc2nc3c(=O)[nH]c(=O)[nH]c3nc2c1)C(F)(F)F	57*	-315
CN1CCN(C(=O)C2CCN(S(C)(=O)=O)CC2)CC1	-1.1	0
Cc1ccc(-n2c(=O)c3cccnc3n2CC(=O)NCc2ccccc2Cl)cc1C	x	5
CCC(=O)NCc1nc2ccccc2n1Cc1ccc(Cl)cc1	x	7
CC1CCCC(C)N1CC(O)COc1c(F)cc(Br)cc1F (stereo unspecified)	0.1	7
COc1ccc(-c2nnc(C3CCN(S(=O)(=O)c4ccc(F)c(C)c4)CC3)o2)cc1	x	19
CCn1c2ccccc2c2nnc(N3CCN(c4ccccc4)CC3)nc21	x	-13
COC(=O)c1ccc(CN2CCN(CCN3C(=O)c4cccc5cccc(c45)C3=O)CC2)cc1	-1.8	x
N#CCN1C(=O)c2ccccc2S1(=O)=O	3.9	x
O=C(NCc1ccccc1Br)C1CCCO1 (stereo unspecified)	-0.9	14
O=C(O)C1C2C=CC(C2)C1C(=O)NCc1cccc(Cl)c1 (stereo unspecified)	2.2	-3
Cc1onc(-c2c(Cl)cccc2Cl)c1NC(=O)O/N=C/c1cccnc1	0.9	x
O=c1[nH]c(CSc2nnnn2C2CCCC2)nc2ccccc12	x	-32
NC(=O)CCOC1CCN(Cc2ccccc2)CC1	1.3	x
CC(OC(=O)c1ccco1)C(=O)NC1CCCC1 (stereo unspecified)	-5.5	-2
CCn1c2ccccc2c2cc(/C=N/NC(=O)Cc3cccs3)ccc21	-0.7	3
CN(C)S(=O)(=O)c1ccc(C(=O)Nc2sccc2C#N)cc1	x	-19
Cc1ccc(C2C3=C(CC(C)(C)CC3=O)NC3=C2C(=O)c2ccccc23)cc1 (stereo unspecified)	0.2	-12
COC(=O)c1ccc(NC(C)=O)cc1	-1.9	2
O=C(NC1CC1)c1cccc(NC(=O)C2COc3ccccc3C2)c1 (stereo unspecified)	x	-8
CC1CN=C(NC(=O)c2ccccc2)S1 (stereo unspecified)	-0.6	14
CCc1noc(C)c1C(=O)Nc1sc(C(=O)N(C)C)c(C)c1C(=O)OC	-2.6	14
OCC1N=C(c2ccccn2)OC1c1ccccc1 (stereo unspecified)	x	15
SMILES	MgrA DNA FP	Sa helicase inh
COc1ccc(N(Cc2cc(C)on2)S(=O)(=O)c2cc(C)ccc2C)cc1	x	-5
CC1=C(C(=O)OC2CCCCCCC2)C(c2ccc(Br)cc2)NC(=O)N1 (stereo unspecified)	3.8	x
O=C(Cn1cnnn1)OCC(=O)c1ccc(Cl)s1	x	3
CCOC(=O)c1c(NC(=O)c2cc3n(n2)C(C(F)(F)F)CC(c2ccccc2)N3)sc2c1CCC2 (stereo unspecified)	3.0	x
CS(=O)(=O)NCC(c1ccco1)N1CCCCC1 (stereo unspecified)	x	-4
O=C(CCc1ccc(S(=O)(=O)N2CCCCCC2)cc1)Nc1nnc(C2CC2)s1	x	-7
Nc1c(C(=O)c2ccccc2)sc2nc3c(cc12)C(=O)CCC3	x	-19
N#C/C(=C\Nc1cccc(C(F)(F)F)c1)c1nc2ccccc2[nH]1	0.8	x
COc1cccc(NC(=O)N2CCC(N(C)C(C)C)CC2)c1	x	-4
COc1ccc(/C(N)=N/O)cc1OC1CCCC1	-0.9	x
CCOC(=O)c1c(C)[nH]c(C(=O)CN2C(=O)NC(CC)(c3ccc(F)cc3)C2=O)c1C (stereo unspecified)	x	-5
CCc1ccc(-c2cc(C)no2)cc1S(=O)(=O)N(C)Cc1ccccc1	x	12
CSc1cccc(NC(C#N)c2ccccc2)c1 (stereo unspecified)	2.3	x
CCc1ccc(NC(=O)Nc2nnc(N(CC)c3ccccc3)s2)cc1	-1.8	-1
CC(C)C(=O)NCC(c1cccnc1)N1CCN(c2ccccc2)CC1 (stereo unspecified)	x	-5
CN(C)C(=O)CSc1nc2ccccc2o1	1.4	22
Cc1ccc(OC(=O)/C=C/c2cccs2)cc1	x	-10
CCCCNC(=O)N1CCCN(c2ccc(C#N)cn2)CC1	x	-14
Cc1c(C)n(C(=O)CN2CCc3ccccc32)c2ccccc12	3.5	-17
CCc1ccc(N(C)C(=O)CN2Cc3ccccc3C2=O)cc1	x	-5
COC(=O)c1sc(SC)c(C#N)c1-c1ccco1	-1.1	x
NCC1OC(COC[C@@H]2C(O)[C@H](OC3C(O)C(N)CC(N)C3OC3OC(CN)C(O)C(O)C3N)O[C@@H]2CO)C(N)C(O)C1O (stereo partly specified)	-2.6	x
O=C(Nc1ccc(-c2cn3c(n2)SCC3)cc1)c1ccc2c(c1)OCO2	x	-4
CCNc1nc(NC(C)C)nc(SCCOc2ccc(C)cc2)n1	2.8	x
Cc1cccnc1NC(=O)C(F)(F)F	0.2	x

An excerpt from above in order of their number in Sa helicase inh, descending:
SMILES	MgrA DNA FP	Sa helicase inh
CC(C)C(=O)NCC(c1cccnc1)N1CCN(c2ccccc2)CC1 (stereo unspecified)	x	-5
Cc1ccc(OC(=O)/C=C/c2cccs2)cc1	x	-10
Cc1c(C)n(C(=O)CN2CCc3ccccc32)c2ccccc12	3.5	-17
Nc1c(C(=O)c2ccccc2)sc2nc3c(cc12)C(=O)CCC3	x	-19

(list continues)
SMILES	MgrA DNA FP	Sa helicase inh
O=C(N/C(=C/c1cccs1)C(=O)N1CCCC1)c1ccccc1	x	-23
Cc1c(C(=O)OCCN2CCOCC2)oc2ccccc12	-5.2	5
CCN(CC)Cc1ccc(C(=O)NCc2ccc(Cl)cc2)o1	x	8
NS(=O)(=O)c1ccc(NC(NC(=O)c2ccco2)C(=O)c2ccc(Cl)cc2)cc1 (stereo unspecified)	x	6
CC1=C(C#N)C(=O)N(CCc2ccccc2)C(=O)/C1=C\c1ccc(-c2ccccc2)o1	16	10
COc1nc(NCC(C)C)nc(Oc2ccc(=O)n(-c3ccccc3)n2)n1	x	-10
COC(=O)C1C(c2ccc(OC)c(OC)c2)C(C(=O)OC)S(=O)(=O)CS1(=O)=O (stereo unspecified)	x	3
CC1CCCCC1NC(=O)COC(=O)c1ccc(Cl)c(S(N)(=O)=O)c1 (stereo unspecified)	x	-6
CCOC(=O)CN1C(=O)C(C(C)C)Oc2c(C(C)C)cccc21 (stereo unspecified)	-1.2	x
C=CCNc1oc(Cc2cccc3ccccc23)nc1C#N	x	-10
CSc1nc(/C=N/O)ccc1C#N	-0.3	x
O=c1c(-c2ccn[nH]2)cnc2sc3ccccc3n12	-1.2	x
CC1CCN(Cc2ccccc2CO)CC1	5.5	18
CS(=O)(=O)N1CCN(c2ccc(N)cc2)CC1	-0.2	0
CC(=O)OCCn1nc(C)c2ccccc2c1=O	x	16
CC(C)C(C(=O)O)N1C(=O)/C(=C/C=C/c2ccco2)SC1=S (stereo unspecified)	x	15
O=C(Nc1ccccc1)c1ccc(CSc2ccc(C(F)(F)F)cn2)o1	2.8	x
O=C1CN(c2ccccc2)C(=O)CN1c1ccccc1	-1.5	5
CC(C)(C)C(=O)/C=c1\[nH]c(=O)/c(=C\c2cccs2)s1	x	4
NC(=O)c1ccccc1NC(=O)CCC(=O)O	-3.8	2
CCCN(CCC)C1=CC(=O)C(C)=C(C)C1=O	x	7
CCCN(CCC)C(=O)CCn1c(=O)oc2ccccc21	x	-11
CCCSc1nnc2c3ccccc3n(CC)c2n1	2.2	7
CC1(C)CC(=O)c2c(SCCOC(=O)c3ccccc3Cl)sc(C#N)c2C1	-1.1	x
Cc1ccc(SCC#N)cc1C	x	-3
SMILES	MgrA DNA FP	Sa helicase inh
CC1=CC(=O)C2(C)C3CCC4CC(=O)CCC4(C)C3=CCC2S1(=O)=O (stereo unspecified)	x	-14
CCOC(=O)C1CCN(C(=O)c2ccc3c(c2)CCCN3S(C)(=O)=O)CC1	x	11
CN(C)Cc1cc(C(C)(C)C)cc(CN(C)C)c1O	0.3	-12
O=c1oc2ccccc2cc1-c1cn2cc(Cc3cccc(C(F)(F)F)c3)sc2n1	0.5	0
Cc1cccc2cc(CN(CC3CCCO3)C(=O)CC(C)(C)C)c3nnnn3c12 (stereo unspecified)	-1.0	-4
C=C(C)c1c2c(c(Cl)c3ccccc13)C[N+](CC)(CC)C2	2.6	17
CC(C)SCc1nc2ccccc2[nH]1	-1.1	-17
CC(=O)Nc1ccc2c(c1)nc(CN1CCCC1)n2C	-0.3	1
CCCc1ccc(-c2ccc(C#N)cc2)nc1	-2.2	x
COc1ccc2[nH]c(=O)c(CN(Cc3cccnc3)C(=O)Nc3ccccc3)cc2c1	20	-7
O=c1[nH]c(SCc2ccccc2)nc2nc[nH]c12	0.8	-16
CSc1cccc(NC(=O)CSc2ccc(C)cc2)c1	-0.6	x
N#Cc1ccc(Cl)cc1N=Cc1cccs1	-1.5	11
Cc1ccc(CCNC(=O)C(C)N2C(=O)CC(C)(C)Sc3ccccc32)cc1 (stereo unspecified)	x	8
CC(=O)Oc1c(Br)cc2oc(=O)sc2c1Br	x	13
CC1CC(C)CN(CCCNC(=O)c2ccc3c(c2)N(C)CCS3)C1 (stereo unspecified)	x	31
COCCc1nnc(N)s1	0.6	-4
CN(C)Cc1cc(O)c(CN(C)C)cc1O	55*	x
CC(C)Cn1c(COc2ccccc2)nc2ccccc21	x	-5
Cn1ccc(-c2cc(C(=O)O)c3ccccc3n2)n1	-4.7	7
O=C(Nc1nc(-c2ccccc2)cs1)C1CCC1	x	-7
N#Cc1c2ccc(OCC(N)=O)cc2n2ccccc12	-0.3	x
Cc1cccc(NC(=O)CSc2nnc3ccccn23)c1	x	-32
N#C/C(=C\c1c(Oc2ccccc2)nc2ccccn2c1=O)S(=O)(=O)c1ccccc1	-0.2	12
Clc1cccc(C=Nc2ccc(N3CCOCC3)cc2)c1Cl	2.1	5
SMILES	MgrA DNA FP	Sa helicase inh
CCCN(CCC)C(=O)c1cc2c(=O)n(CC)c3ccccc3c2s1	0.7	1
O=C(Oc1c(Br)cc(Cl)c2cccnc12)N1CCOCC1	x	-17
Clc1ccc(Nc2c(-c3ccccn3)nc3cnccn23)cc1	x	9
O=C(Oc1ccc(-c2ccccc2)cc1)c1ccco1	1.9	-2
CC(NC(=O)c1nn(C)c(=O)c2ccccc12)c1ccc(F)cc1 (stereo unspecified)	x	0
O=C(O)CCSc1nc2ccccc2s1	x	12
CCOCCC(=O)Nc1nccs1	0.6	5
N#CCCN(C1CCCCC1)S(=O)(=O)c1cccc2nsnc12	-0.9	x
Cc1ccc(C(=O)C(CC(=O)Nc2ccc(F)c(F)c2)c2nc3ccccc3[nH]2)cc1 (stereo unspecified)	-0.4	1
CON(C)CC(=O)Nc1cc(Cl)cc(Cl)c1	x	2
CCn1c(=O)c(NC(=O)c2ccccc2)c2n(c1=S)CCCCC2	x	11
Cc1cccc(N2CCN(C(=O)c3ccc(NC(N)=O)cc3)CC2C)c1 (stereo unspecified)	x	-11
CCCNC(=O)Nc1ccc2c(c1)oc1ccccc12	0.7	11
COc1cc2nc(N3CCN(C(=O)C4CCCO4)CC3)nc(N)c2cc1OC (stereo unspecified)	-1.5	x
O=[N+]([O-])c1ccccc1N1CCCCC1	0.6	x
c1ccc(Oc2cccc(CSc3ncn[nH]3)c2)cc1	-0.7	5
COC(=O)c1ccc(-c2nn(C)c(=O)c3ccccc23)cc1	x	-19
O=C1CCC2(C(=O)OCc3nc4ccccc4s3)Sc3ccccc3N12 (stereo unspecified)	x	-8
Cc1ccc(C)c(NCc2ccccc2CO)c1	-0.6	19
O=c1oc(-c2ccc(F)cc2)nn1CN1CCCC2CCCCC21 (stereo unspecified)	x	-10
Oc1ccccc1-c1nc2ccccc2o1	-2.2	-28
CC(C)(C)c1cc2cccnc2[nH]1	-0.1	x
CN(C)C(=S)SCC(=O)N1N=C(c2ccc(Cl)cc2)CC1c1ccco1 (stereo unspecified)	x	24
CCOC(=O)c1c(NC(=O)CSCC(=O)O)sc2c1CCCC2	0.7	x
Cc1nn(CCCC(=O)NCC2CCCO2)c(=O)c2cc3sccc3n12 (stereo unspecified)	x	6

Complete entries from above.
Shown for `CC(C)Cn1c(COc2ccccc2)nc2ccccc21` → MgrA DNA FP = x; Sa helicase inh = -5
Shown for `C=CCNc1oc(Cc2cccc3ccccc23)nc1C#N` → MgrA DNA FP = x; Sa helicase inh = -10

Ordered by molar mass (lowest first): 7 of the compounds above
SMILES	MgrA DNA FP	Sa helicase inh
CC(C)(C)c1cc2cccnc2[nH]1	-0.1	x
Oc1ccccc1-c1nc2ccccc2o1	-2.2	-28
Cc1ccc(C)c(NCc2ccccc2CO)c1	-0.6	19
COC(=O)c1ccc(-c2nn(C)c(=O)c3ccccc23)cc1	x	-19
O=c1oc(-c2ccc(F)cc2)nn1CN1CCCC2CCCCC21 (stereo unspecified)	x	-10
O=C(Oc1c(Br)cc(Cl)c2cccnc12)N1CCOCC1	x	-17
CN(C)C(=S)SCC(=O)N1N=C(c2ccc(Cl)cc2)CC1c1ccco1 (stereo unspecified)	x	24

Other compounds follow:
SMILES	MgrA DNA FP	Sa helicase inh
CCc1ccc(N2C(=O)CC(Sc3ccccc3N)C2=O)cc1 (stereo unspecified)	0.7	x
O=C(NCc1ccc2c(c1)OCO2)C1(S(=O)(=O)c2ccccc2)CC1	x	-11
O=c1c2cccnc2n(Cc2ccc(F)cc2)c(=O)n1Cc1ccc2c(c1)OCO2	x	-14
CC(C)CN1C(=O)N(c2ccccc2)C(=O)C1CC(=O)Nc1ccccc1 (stereo unspecified)	x	-36
CC(=O)Nc1sc2c(c1C(=O)O)CCc1ccccc1-2	5.0	13
O=C(O)CN1CCN(C(c2ccccc2)c2ccccc2)CC1	-1.8	6
CSc1ncc2c(=O)[nH]cnc2n1	2.8	x
CC1C(=O)OC2(c3ccc(Br)cc3)C(C)C(=O)OC12 (stereo unspecified)	x	8
CCN(C(=O)Cc1nc(-c2ccc(OC)cc2)no1)c1ccccc1	x	10
COc1ccc(-c2csc(N3CCCC3C(=O)OCc3ccccc3)n2)cc1 (stereo unspecified)	1.8	0

High-throughput results deposited in PubChem by ICCB-Longwood Screening Facility, Harvard Medical School.
